D2 ag – Beta-Arrestin HTS for Positive Allosteric Modulators of the Human D2 Dopamine Receptor: Agonists; AID 624465, 2012; 0.084% of 360,000 active; activation, % (test concentration not listed); DiscoveRx PathHunter D2 beta-arrestin, luminescence, 90 min; 100% = 57 uM dopamine signal; in the data active = activation above about 40%; inconclusive = about 15% to 40%; inactive = below about 15%; note: compound concentration not given in the record; the text of the record calls up to 30% inactive
Target sequence (P14416 whole entry, looked up): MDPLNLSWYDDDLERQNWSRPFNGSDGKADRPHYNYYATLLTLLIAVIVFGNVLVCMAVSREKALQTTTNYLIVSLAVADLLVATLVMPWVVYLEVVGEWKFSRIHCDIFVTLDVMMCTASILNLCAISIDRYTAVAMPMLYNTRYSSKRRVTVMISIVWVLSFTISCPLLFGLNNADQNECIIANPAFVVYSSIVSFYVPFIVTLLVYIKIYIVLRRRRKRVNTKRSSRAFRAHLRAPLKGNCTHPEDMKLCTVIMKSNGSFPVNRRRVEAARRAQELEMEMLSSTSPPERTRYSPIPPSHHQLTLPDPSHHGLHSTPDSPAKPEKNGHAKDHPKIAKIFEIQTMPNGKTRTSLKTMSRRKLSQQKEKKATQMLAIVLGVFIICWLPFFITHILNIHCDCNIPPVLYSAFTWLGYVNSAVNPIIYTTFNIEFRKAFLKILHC
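Agonist mode: compounds alone added to overnight-plated D2 PathHunter cells for 90 min at 37 C, with 57 uM final dopamine (EC100) defining full response. Beta-arrestin recruitment detected by chemiluminescent reagent, read after 1 h at ambient temperature.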
TRPML1 ag – qHTS for Agonists of the Human Mucolipin Transient Receptor Potential 1 (TRPML1). 0.12% of 410,000 active. TRPML1-expressing cells, Ca2+ dye fluorescence, FDSS; host cell line not named in the record; reference of the full effect not given here. activation, % (concentration not given with the values). Mucolipin-1 (Homo sapiens), Q9GZU1; in the data active = activation above about 50%; inconclusive = about 30% to 50%; inactive = below about 30%; note: 0% is about no effect; the text of the record puts the active cut at 80%
Target sequence (Q9GZU1 whole entry, looked up): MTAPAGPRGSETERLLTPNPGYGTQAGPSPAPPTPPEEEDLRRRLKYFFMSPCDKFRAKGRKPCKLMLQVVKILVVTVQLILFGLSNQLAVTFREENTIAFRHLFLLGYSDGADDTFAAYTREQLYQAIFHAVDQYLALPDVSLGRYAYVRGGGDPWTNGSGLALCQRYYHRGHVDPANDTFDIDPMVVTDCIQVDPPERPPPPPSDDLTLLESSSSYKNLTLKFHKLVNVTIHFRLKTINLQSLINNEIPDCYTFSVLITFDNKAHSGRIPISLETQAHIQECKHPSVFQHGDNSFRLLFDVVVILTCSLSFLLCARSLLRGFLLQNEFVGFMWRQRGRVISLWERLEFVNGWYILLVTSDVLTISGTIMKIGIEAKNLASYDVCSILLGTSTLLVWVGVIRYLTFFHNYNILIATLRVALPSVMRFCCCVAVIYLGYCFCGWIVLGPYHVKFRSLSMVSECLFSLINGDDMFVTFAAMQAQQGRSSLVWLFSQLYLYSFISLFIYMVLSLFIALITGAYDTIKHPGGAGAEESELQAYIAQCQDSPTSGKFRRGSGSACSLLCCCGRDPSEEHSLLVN
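Kinetic FDSS Ca2+ read in Tet-induced TRPML1-DL cells (ABD Ca8 dye plus quencher, 45-90 min RT loading): baseline, then compound, then 110 s agonist window; EC80 agonist 54-4 at 4uM final added afterwards for a 110 s antagonist window.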
PINK1 expr mod – A Quantitative High throughput Screen to Identify Chemical Modulators of PINK1 Expression; PINK1 immunofluorescence, high-content cytometry, 24 h; Potency, µM (top dose mostly 76.6 µM), for the others: at the highest dose activation (PINK1 increase), hits mostly activators; 0.2% of 410,000 active; active = well fitted activation curve with a large enough effect; inconclusive = small, poorly fitted or top-dose-only effect; inactive = flat fitted curve, though single readings scatter; cell line not stated here;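 note: potency is the fitted concentration of half-maximal effect; % of control where 0% means no effect; nearly all actives have a fitted effect of over 65% in size; a mitochondrial uncoupler was the plate control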
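Cells are seeded, rested 12 hours, then given compound at five concentrations or DMSO for 24 hours. After fixation, blocking and antibody staining, PINK1 amount and mitochondrial localization are scored; CCCP serves as control.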
Six1-Eya2 blk – qHTS Assay for Inhibitors of the Six1/Eya2 Interaction. AlphaScreen GST-Six1/His-Eya2 binding, biochemical; active compounds read low; control for the full effect not named in the record. Homeobox protein SIX1 (Homo sapiens) + Protein phosphatase EYA2 (Homo sapiens), …. activity change, % (concentration not given with the values). 0.56% of 360,000 active; in the data active = activity change below about -65%; inconclusive = about -30% to -65%; inactive = above about -30%; note: % is set by controls: 0 for no effect and ±100 for the full control effect
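Homogeneous AlphaScreen proximity assay pairing GST-Six1 with His-tagged Eya2 (added as 5X mix: 250 nM and 500 nM) in 50 mM Tris pH 8.0, 300 mM NaCl, 1 mM TCEP. Glutathione donor and nickel acceptor beads; 1 h, 37 °C, dark.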
TRPML1 blocker – qHTS for Inhibitors of the Human Mucolipin Transient Receptor Potential 1 (TRPML1); activity change, negative = inhibition, % (concentration not given with the values); 0.02% of 390,000 active; TRPML1-inducible cells, Ca2+ dye fluorescence, FDSS; active compounds read low; inhibition of EC80 agonist-evoked calcium signal; Mucolipin-1 (Homo sapiens), Q9GZU1; AID 624415, 2012; in the data active means activity change below about -50%; inconclusive means about -30% to -50%; inactive means above about -30%;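 note: stimulus is agonist 54-4 at its EC80 concentration; % is set by controls: 0 for no effect and ±100 for the full control effect; the text of the record puts the active cut at -80%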
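Tet-induced TRPML1-DL cells loaded with Ca8 no-wash calcium dye were read kinetically on FDSS. Compound addition was followed by EC80 agonist 54-4 (4 uM final); inhibition was read over 110 s.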
CtBP-E1A blk – qHTS Assay for Inhibitors of the CtBP/E1A Interaction | AID 651724, 2012 | CtBP / adenovirus E1A interaction (AlphaScreen) | 0.49% of 340,000 active | AlphaScreen GST-E1A/His-CtBP binding, 1536-well; active compounds read low; control for the full effect not named in the record | activity change, % (test concentration not listed); in the data active means activity change below about -65%; inconclusive means about -30% to -65%; inactive means above about -30%; note: % is set by controls: 0 for no effect and ±100 for the full control effect
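GST-E1A and His-tagged CtBP (125 nM each as 5X stock) were preincubated with pin-transferred compound for 2 h at 37 °C in the dark, then glutathione donor and nickel acceptor beads were added for 1 h before AlphaScreen reading.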
* hit, by the source's call; u = inconclusive; x = no result given; [ ] = remark or other dose.

SMILES | D2 ag | TRPML1 ag | PINK1 expr mod | Six1-Eya2 blk | TRPML1 blocker | CtBP-E1A blk
COc1ccc(CN(CC(=O)NCc2ccc(F)cc2)C(=O)c2csnn2)cc1 | -0.1 | 0.3 | -0.8% | 6 | 8 | 6
CNCc1ccccc1OCC(=O)Nc1ccccc1 | -2.6 | 0.3 | 0.0%[38.3 µM] | 3 | 8 | 5
COc1cc(/C=C(/C#N)c2nc3ccccc3[nH]2)ccc1OCc1ccc(C(=O)O)o1 | 2.2 | -0.2 | 1.1% | -16 | -1 | 5
CCN(c1cc(C)cc(C)c1)S(=O)(=O)c1nnc(NC(=O)C(C)C)s1 | 0.1 | 0.7 | 1.9% | 5 | -3 | 0
CCc1ccccc1NC(=O)C(CCSC)NS(=O)(=O)c1ccc2c(c1)oc(=O)n2C (stereo not given) | x | -1.1 | 1.2% | x | -17 | x
Cc1ccc(-c2nc3ccccn3c2NC(=O)c2ccco2)cc1 | 0.2 | 0.2 | -1.7%[38.3 µM] | 1 | 12 | -2
COc1ccc(OC)c(NC(=O)C2C3CCC(C3=C(C)C)C2C(=O)O)c1 (stereo not given) | -2.0 | -0.4 | 1.9% | 0 | -24 | 2
CC(=O)NCCC(=O)Nc1ccc(F)cc1C | 2.6 | 0.4 | 0.8% | 9 | -2 | -1
O=C(Nc1ccccc1C(=O)NCc1ccco1)NC1CCCCC1 | -3.0 | -0.9 | 1.9% | 4 | -1 | -4
CC(c1ccc(F)cc1)n1c(Cn2ncc3ccccc3c2=O)n[nH]c1=S (stereo not given) | 4.7 | 0.3 | 0.4% | 4 | 10 | 11
COc1cc(NC(=O)COC(=O)CCOc2ccc(C)cc2)cc(OC)c1 | -4.1 | 1.0 | 2.1% | 0 | -6 | 1
CN1CCc2c(sc3c2C(=O)NC(c2ccc4c(c2)OCO4)N3)C1 (stereo not given) | -2.3 | -0.4 | 1.7%[38.3 µM] | -4 | -6 | 0
CNc1ccc(-c2nc(-c3ccncc3)no2)cc1[N+](=O)[O-] | x | -0.3 | 11% | x | -5 | x
Cn1c(=O)c2c(ncn2CC(=O)N/N=C/C(Br)=C/c2ccccc2)n(C)c1=O | -0.4 | 1.4 | -0.2% | 0 | 19 | -18
Cc1cc2n(n1)C(c1sccc1C)Nc1c(C)cccc1-2 (stereo not given) | -2.7 | 1.1 | 0.9% | 24 | 22 | 5
O=C(NC1=NCCS1)Nc1ccccc1 | -0.7 | 2.2 | -2.3% | 3 | -6 | -3
O=C1[C@H]2[C@@H](c3ccccc3)N[C@]3(CCCN(Cc4ccc(F)cc4)C3=O)[C@H]2C(=O)N1Cc1ccccc1 | -7.9 | -0.6 | 1.0% | -3 | 13 | 1
CC1CCC(NC(=O)c2cc(S(=O)(=O)N3CCCCC3)c[nH]2)CC1 (stereo not given) | -2.4 | -0.6 | 4.0% | 7 | -1 | -17
O=C(O)c1cc2c(cc1NC(=O)c1c(F)cccc1F)OCCCO2 | -2.1 | -0.1 | -0.3% | -13 | -6 | -6
COc1ccc(CCNC(=O)COC(=O)Cn2cnc3c2c(=O)n(C)c(=O)n3C)cc1 | 8.8 | -0.5 | -0.6% | -15 | -7 | -23
c1ccc(-c2csc3ncnc(N4CCc5ccccc5C4)c23)cc1 | -2.8 | 0.9 | 13% | -5 | 4 | 7
CC1(C)Cc2ccccc2C2CC(O)C(=O)N21 (stereo not given) | -0.5 | 0.7 | x | 0 | 18 | -3
O=C(Nc1ccc(Cl)cc1)N1CCN(c2ccc3nnc(-c4ccccc4)n3n2)CC1 | x | 5.5 | 0.0% | x | -10 | x
N=C1C(c2nc3ccccc3s2)=C(O)CN1c1ccccc1 | -2.7 | 0.2 | 8.9% | 8 | 7 | -1
Nc1nc(N)nc(Cc2ccccc2O)n1 | -1.6 | -0.5 | 0.2% | 0 | -5 | 3
CCC(C)NC(=O)CSCc1nc(-c2ccc(C)cc2)oc1C (stereo not given) | x | 0.8 | 0.8% | x | 8 | x
N#Cc1ccc(COC(=O)CSc2nnc(N)s2)cc1 | -0.2 | 1.4 | 0.9% | -5 | 23 | 6
CSCCC(NC(=O)c1ccco1)C(=O)NCc1ccc(F)cc1 (stereo not given) | -1.2 | 0.2 | x | 14 | 20 | 0
CCCc1cc(=O)[nH]c(SCC(=O)N2CCC(C)CC2)n1 | -1.0 | 0.1 | 2.6% | 7 | -9 | x
CC1=CC(C)(C)N2C(=O)C3(C(C#N)=C(N)OC4=C3C(=O)CC(C)(C)C4)c3cc(C)cc1c32 (stereo not given) | 0.0 | 2.6 | u | -4 | 7 | -18
CCCCC(=O)Nc1ccc(C(=O)NNC(=O)CCc2ccccc2)cc1 | -1.0 | 0.6 | x | 7 | 1 | 2
CC(=O)N(CC(=O)N(CC(=O)O)c1ccc(Cl)cc1)c1ccc(Cl)cc1 | 2.0 | -0.9 | -3.1% | 0 | 3 | 7
CCOc1cc(/C=C/C(=O)c2ccc(O)cc2)ccc1OCC(=O)N(C)C | -4.8 | 0.9 | -2.1% | 12 | -9 | -6
Cc1cccc(-c2cc3nc(C)cc(NCCCN(C)C)n3n2)c1 | -1.2 | -0.3 | 2.9%[38.3 µM] | -2 | -4 | 0
C/C(Cn1nnc([N+](=O)[O-])n1)=N\NC(=O)c1ccc(O)cc1O | u | 0.8 | -0.3% | -15 | -13 | -20
COc1cccc(C(O)Cc2nc3ccccc3n2C)c1OC (stereo not given) | -2.6 | 0.0 | 1.9% | 6 | -17 | 11

Part of the list above, with two lines to a compound:
Sequence of screens – D2 ag | TRPML1 ag | PINK1 expr mod | Six1-Eya2 blk | TRPML1 blocker | CtBP-E1A blk
Nc1nc(N)nc(Cc2ccccc2O)n1
  -1.6 | -0.5 | 0.2% | 0 | -5 | 3
CCC(C)NC(=O)CSCc1nc(-c2ccc(C)cc2)oc1C (stereo not given)
  x | 0.8 | 0.8% | x | 8 | x
N#Cc1ccc(COC(=O)CSc2nnc(N)s2)cc1
  -0.2 | 1.4 | 0.9% | -5 | 23 | 6
CSCCC(NC(=O)c1ccco1)C(=O)NCc1ccc(F)cc1 (stereo not given)
  -1.2 | 0.2 | x | 14 | 20 | 0
CCCc1cc(=O)[nH]c(SCC(=O)N2CCC(C)CC2)n1
  -1.0 | 0.1 | 2.6% | 7 | -9 | x
CC1=CC(C)(C)N2C(=O)C3(C(C#N)=C(N)OC4=C3C(=O)CC(C)(C)C4)c3cc(C)cc1c32 (stereo not given)
  0.0 | 2.6 | u | -4 | 7 | -18
CCCCC(=O)Nc1ccc(C(=O)NNC(=O)CCc2ccccc2)cc1
  -1.0 | 0.6 | x | 7 | 1 | 2
CC(=O)N(CC(=O)N(CC(=O)O)c1ccc(Cl)cc1)c1ccc(Cl)cc1
  2.0 | -0.9 | -3.1% | 0 | 3 | 7
CCOc1cc(/C=C/C(=O)c2ccc(O)cc2)ccc1OCC(=O)N(C)C
  -4.8 | 0.9 | -2.1% | 12 | -9 | -6

Going on with the list:
SMILES | D2 ag | TRPML1 ag | PINK1 expr mod | Six1-Eya2 blk | TRPML1 blocker | CtBP-E1A blk
CC(=O)Nc1ccc(NC(=O)CSc2nnc3c4cc(Br)ccc4n(C)c3n2)cc1 | x | -0.5 | -0.1% | x | 0 | x
Cc1nc(C)n(CCNS(=O)(=O)c2ccc(C)c(C)c2)n1 | 6.2 | 0.4 | 1.8% | 6 | 4 | 4
CC(C)CCn1c(SCc2ccc(Cl)cc2)nc2c1c(=O)[nH]c(=O)n2C | 3.1 | 2.1 | 1.4%[38.3 µM] | -2 | 23 | 6
Cc1noc(C)c1CC(=O)NC1CC(C)(C)Cc2c1cnn2-c1ccccc1 (stereo not given) | -1.8 | -0.3 | 2.3% | 0 | 9 | 4
Cc1cccc(NC(=O)c2cnc3sccn3c2=O)n1 | 4.9 | -0.5 | 1.6% | 5 | 9 | 2
CCOc1ccccc1CNCc1c(C(=O)O)c(C)n(Cc2ccc(C)cc2)c1C | x | -0.8 | -1.2% | x | -8 | x
Cc1ccc(CN2CCN(/N=C/c3cc(Br)ccc3O)CC2)cc1 | 0.9 | -0.1 | -4.2%[38.3 µM] | -4 | -2 | 5
CCOC(=O)N1CCC(c2cc(=O)n3[nH]ccc3n2)CC1 | 2.6 | -0.1 | 4.2% | 3 | -7 | 5
Nc1nc(NCCCN2CCOCC2)nc(Nc2ccc(Cl)cc2)c1[N+](=O)[O-] | -2.1 | 0.2 | -0.2% | -2 | 18 | -5
COc1ccc2c(c1)c(N1CCCC1=O)c(C(=O)Nc1cc(C)c(Cl)cc1OC)n2C | x | 1.0 | -1.5% | x | 47 | x
C=CCNC(=O)C1CCCN(S(C)(=O)=O)C1 (stereo not given) | 0.2 | -0.3 | -0.6%[38.3 µM] | -4 | -4 | -20
Cc1noc(NS(=O)(=O)c2ccc(NC(=O)CCCOc3ccc(Cl)cc3Cl)cc2)c1C | -1.6 | -0.8 | -2.6% | -6 | 20 | -6
CCOC(=O)CNC(c1ccccc1)c1cc(Br)ccc1NC(=O)OCC (stereo not given) | -2.0 | 0.5 | -1.4% | 9 | 2 | 16
Cc1ccc(S(=O)(=O)N2CCC(=O)N(C(COCc3ccccc3)Cc3ccccc3)CC2)cc1 (stereo not given) | -4.0 | 1.7 | 0.9% | 5 | -2 | -7
COc1cc(NC(=O)c2ccc(-c3nc(COc4ccccc4)c(C)o3)cc2)cc(OC)c1 | x | 1.8 | 0.8% | x | -12 | x
C=CCN(c1ccccc1)S(=O)(=O)c1cccc(C(=O)Nc2ncccc2C)c1 | -3.8 | -1.4 | 1.0% | -2 | 24 | 3
O=C(Nc1cccc(-c2nc3ccccc3o2)c1)c1ccc(N2C(=O)C3C4C=CC(C4)C3C2=O)cc1 (stereo not given) | -2.2 | 0.4 | u | -8 | 2 | -5
COCCN1CCN(Cc2cn(C)nc2-c2ccc(Oc3ccccc3)cc2)CC1 | 1.0 | 0.0 | 0.8% | -1 | 10 | 1
CC1CCc2nn(CC(=O)NCCC3=CCCCC3)cc2C1 (stereo not given) | -2.4 | 0.9 | 1.4% | 4 | 22 | 7
O=C(Oc1ccccc1Cl)c1ccc2c(=O)n3c(nc2c1)CCC3 | 10 | 1.1 | -3.7% | -29 | 5 | 5
COC(=O)c1ccc(N2CCC(c3cc(-c4ccc(OC)cc4)n[nH]3)CC2)c([N+](=O)[O-])c1 | 0.6 | 0.0 | -10%[38.3 µM] | -28 | -1 | -25
COc1ccc(-c2cc(C3CC3)nc(N)c2C#N)cc1 | 1.4 | 4.9 | 3.2% | -15 | 9 | -21

High-throughput results (PubChem BioAssay)
